# High-throughput results as filed in PubChem.
# GALK inh: inhibitors of human galactokinase. Purified GALK, Kinase-Glo residual ATP luminescence. Potency, µM (top dose mostly 57.5 µM), without a hit: at the highest dose activity change, negative = inhibition, most hits filed as inhibitors. P51570. 270,000 compounds, 0.007% hits; also: potency is read from the fitted curve at half-maximal effect; % is scaled to controls: 0 for no effect and ±100 for the full control effect
#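 Human GALK (5 nM) with 35 uM ATP and 100 uM galactose in 20 mM HEPES pH 8.0, 5 mM MgCl2, 60 mM NaCl, 1 mM DTT, 0.01% BSA. After 1 h at room temperature, leftover ATP was read by Kinase-Glo Plus luminescence.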
# USP2a inh: blocks human ubiquitin-specific protease USP2a; O75604; 330,000 compounds, 0.01% hits; USP2 core, Ub-CHOP2 coupled fluorogenic reporter, 485/531; Potency, µM (series often up to 38.3 µM), inactives show at the top dose activity change, negative = inhibition, usual class: inhibitors; AID 463254;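 also: potency is read from the fitted curve at half-maximal effect; plate controls were DMSO wells for no effect and full inhibition by NEM control for full effect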
# Target sequence (O75604 whole entry, looked up): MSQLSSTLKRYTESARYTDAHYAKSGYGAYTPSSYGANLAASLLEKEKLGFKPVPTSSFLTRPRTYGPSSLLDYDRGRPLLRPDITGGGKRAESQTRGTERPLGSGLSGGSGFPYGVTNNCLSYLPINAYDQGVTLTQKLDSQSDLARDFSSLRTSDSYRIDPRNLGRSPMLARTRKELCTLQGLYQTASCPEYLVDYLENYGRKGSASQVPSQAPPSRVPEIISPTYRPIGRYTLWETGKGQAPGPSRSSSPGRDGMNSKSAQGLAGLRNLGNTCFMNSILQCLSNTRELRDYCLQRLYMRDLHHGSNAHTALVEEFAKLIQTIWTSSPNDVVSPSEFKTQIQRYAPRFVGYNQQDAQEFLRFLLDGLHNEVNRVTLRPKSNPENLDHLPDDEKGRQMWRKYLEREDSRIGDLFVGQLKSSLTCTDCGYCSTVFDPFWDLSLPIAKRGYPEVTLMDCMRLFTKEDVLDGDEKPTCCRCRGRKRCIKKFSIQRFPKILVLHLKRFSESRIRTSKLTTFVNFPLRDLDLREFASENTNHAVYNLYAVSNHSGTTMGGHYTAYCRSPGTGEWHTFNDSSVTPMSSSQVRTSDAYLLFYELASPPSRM
#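 USP2 core (10nM final) preincubated 30min RT with compound in 20mM Tris-HCl pH 8.0, 2mM CaCl2, 2mM beta-mercaptoethanol, 0.05% CHAPS; 25nM Ub-CHOP2 plus 25nM reporter substrate added, fluorescence (Ex485/Em531) read after 60min.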
# FBPA coupling cs: coupling enzyme interference in Giardia aldolase counter-screen; coupling enzyme system counterscreen, AmpLite Red fluorescence; 290,000 compounds, 0.67% hits; activity change, negative = inhibition, % at 58.2 µM, hits read low; in the data active = activity change below about -30%; also: % is scaled to controls: 0 for no effect and ±100 for the full control effect
#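 Coupling enzymes only (glyceraldehyde-3-phosphate) + compound, at 57.5 uM final, 10 min RT; add substrate/coupling/AmpLite Red mix, 20 min RT; fluorescence ex 525/em 598 nm. Actives flag coupling-system interference.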
# MLL CXXC-DNA inh: inhibitors of human MLL CXXC domain-DNA interaction; AID 2662; Potency, µM (top dose mostly 115 µM), for the others: at the highest dose activity change, negative = inhibition, hits mostly inhibitors; MLL-CXXC / FITC-HOXA9 DNA fluorescence polarization; 290,000 compounds, 0.037% hits; active = well fitted inhibition curve with a large enough effect in the polarisation, with a control signal flat, not every such curve was filed as active; the % refers to the polarisation; also: potency is read from the fitted curve at half-maximal effect
#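 Purified MLL-CXXC (added from a 7 uM solution) was preincubated 5 min at ambient with pinned compounds in 50 mM Tris-HCl pH 7.5, 50 mM NaCl, 1 mM DTT, 0.05% BSA. Fluorescein-labeled HOX-A9 DNA (50 nM solution) followed, 30 min, then polarization read.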
# PKM2 activator: PKM2 (human) enzyme activation | AID 1631 | purified PKM2, Kinase-Glo ATP luminescence, activation; response scale: 0% is enzyme alone, no compound | 260,000 compounds, 0.34% hits | Potency, µM (highest dose often 57.5 µM), for inactives: at the top dose activation, hits mostly activators; also: potency is read from the fitted curve at half-maximal effect; % is scaled to controls: 0 for no effect and ±100 for the full control effect; nearly all actives have a fitted effect of over 55% in size
#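 Purified hPK-M2 (>95% pure) converted ADP (0.1 mM final) to ATP with 0.5 mM PEP in 50 mM imidazole pH7.2, KCl, MgCl2, Tween 20, BSA; 1 h at room temperature. ATP detected by Kinase-Glo luminescence.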
# Giardia killer: Giardia lamblia killing; Giardia lamblia trophozoite viability; activity change, % at 7.66 µM, hits read low; 340,000 compounds, 0.15% hits; AID 540267; in the data active = activity change below about -80%;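 also: parasites exposed to compound for two days anaerobically before the ATP read; % is scaled to controls: 0 for no effect and ±100 for the full control effect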
#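 Giardia trophozoites, 100 cells per well, were exposed to compounds for 48 hrs at 37 deg C under anaerobic conditions; viability was then read as ATP content by bioluminescence after 15-30 min at room temperature.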
# Active calls of the source: *; nt = no result given; & = joins results of further samples; [ ] = remark or other dose. Unless noted, calls follow the shape of the dose curve; as a rule, active = well fitted curve in the direction sought with a large enough effect; inconclusive = small, poorly fitted or top-dose-only effect, or another doubt; inactive = no such curve, though single readings can be large; an effect the other way counts as inactive or inconclusive.
mol	GALK inh	USP2a inh	FBPA coupling cs	MLL CXXC-DNA inh	PKM2 activator	Giardia killer
CCC1C2CC3C4N(C)c5ccccc5C45CC(C2C5O)N3[C@@H]1O (some centres undefined)	0%	2%	1	19%	nt	20
O=[N+]([O-])c1cc(F)c(N2CCCC2)cc1N1CCNCC1	-1%	1%	1	3%	-1%	nt
COc1cc(OC)c2c(c1)OCC1CON(C)C21 (centres undefined)	2%	1%	0	2%	2%	3
COc1ccc2c(c1)C13CCCCC1C(C2)N(C)CC3 (centres undefined)	nt	nt	nt	0%	nt	nt
C[C@]12CCC(=O)C[C@@H]1CC[C@@H]1[C@@H]2CC[C@]2(C)[C@@H](O)CC[C@@H]12	nt	-1%	nt	11%	nt	-15
C[C@]12CC[C@H]3[C@@H](CC=C4C[C@@H](O)CC[C@@]43C)[C@@H]1CC[C@@H]2O	nt	nt	nt	12%	nt	nt
CC(=O)[C@H]1CC[C@H]2[C@@H]3CC[C@H]4C[C@H](O)CC[C@]4(C)[C@H]3C(=O)C[C@]12C	-3%	3%	11	4%&-7%	5%	8
CC[C@H]1CN2CC[C@@]3(C(=O)Nc4ccccc43)[C@@H]2C[C@@H]1/C(=C\OC)C(=O)OC	nt	nt	nt	nt	nt	-8
c1ccc2c(c1)Sc1ccccc1N2CC1CN2CCC1CC2 (centres undefined)	1%	1%	0	2%	-4%	3
CC(NC(C)(C)C)C(=O)c1cccc(Cl)c1 (centres undefined)	nt	-2%	-5&4	7%&6%	-20%	-2
COC(=O)[C@@H]1C(OC(=O)c2ccccc2)CC2CCC1N2C (some centres undefined)	nt	2%	nt	nt	nt	58[activator]
C[C@@]12CCC(O)C[C@H]1CCC1C2CC[C@]2(C)C(=O)CCC12 (some centres undefined)	nt	nt	8	nt	nt	nt
O=[N+]([O-])c1ccc(N2CCNCC2)cc1N1CCCCC1	0%	1%	-1	19%	2%	16
C[C@]12CCC(=O)C[C@H]1CC[C@@H]1[C@@H]2CC[C@]2(C)[C@@H](O)CC[C@@H]12	nt	5%	nt	nt	nt	nt
C[C@]12CC[C@H]3[C@@H](CCC4=CC(=O)CC[C@@]43C)[C@@H]1CC[C@@H]2O	nt	1%	nt	-1%	nt	20&18
CN1CCC23c4c5ccc(O)c4O[C@@H]2[C@H](O)C=CC3C1C5 (some centres undefined)	nt	0%	nt	nt	nt	43[activator]
CC[N+](CC)(CC)CC	5%	3%	-15	-9%&-4%	-12%	-7
CCN1C[C@@]2(COC)C3[C@@H](OC)[C@H]4[C@@H]1[C@@]3(C1C[C@@]3(O)[C@H](OC(=O)c5ccccc5)C1[C@]4(OC(C)=O)[C@@H](O)[C@H]3OC)[C@@H](OC)C[C@H]2O (some centres undefined)	nt	nt	nt	nt	nt	2

# Shown field by field: part of the list above
C[C@]12CC[C@H]3[C@@H](CCC4=CC(=O)CC[C@@]43C)[C@@H]1CC[C@@H]2O
  GALK inh: nt
  USP2a inh: 1%
  FBPA coupling cs: nt
  MLL CXXC-DNA inh: -1%
  PKM2 activator: nt
  Giardia killer: 20&18
CC(NC(C)(C)C)C(=O)c1cccc(Cl)c1 (centres undefined)
  GALK inh: nt
  USP2a inh: -2%
  FBPA coupling cs: -5&4
  MLL CXXC-DNA inh: 7%&6%
  PKM2 activator: -20%
  Giardia killer: -2
COc1ccc2c(c1)C13CCCCC1C(C2)N(C)CC3 (centres undefined)
  GALK inh: nt
  USP2a inh: nt
  FBPA coupling cs: nt
  MLL CXXC-DNA inh: 0%
  PKM2 activator: nt
  Giardia killer: nt

# At a glance, some entries already given.
mol	GALK inh	USP2a inh	FBPA coupling cs	MLL CXXC-DNA inh	PKM2 activator	Giardia killer
CCC1C2CC3C4N(C)c5ccccc5C45CC(C2C5O)N3[C@@H]1O (some centres undefined)	0%	2%	1	19%	nt	20
O=[N+]([O-])c1cc(F)c(N2CCCC2)cc1N1CCNCC1	-1%	1%	1	3%	-1%	nt
COc1cc(OC)c2c(c1)OCC1CON(C)C21 (centres undefined)	2%	1%	0	2%	2%	3
COc1ccc2c(c1)C13CCCCC1C(C2)N(C)CC3 (centres undefined)	nt	nt	nt	0%	nt	nt
C[C@]12CCC(=O)C[C@@H]1CC[C@@H]1[C@@H]2CC[C@]2(C)[C@@H](O)CC[C@@H]12	nt	-1%	nt	11%	nt	-15
C[C@]12CC[C@H]3[C@@H](CC=C4C[C@@H](O)CC[C@@]43C)[C@@H]1CC[C@@H]2O	nt	nt	nt	12%	nt	nt

# Some of the compounds tested (hit frequency here may not be typical).
